Screening data from PubChem BioAssay.
VDR inhibitor: inhibitors of human vitamin D receptor; P11473; VDR-SRC2-3 peptide fluorescence polarization, 2 h; Potency, µM, for inactives: max response, negative = inhibition, actives largely listed as inhibitors; actives 0.93% (n = 400,000); active means well fitted inhibition curve with a large enough effect; inconclusive means small, poorly fitted or top-dose-only effect, or another doubt; inactive means no such curve, though single readings can be large or run the other way; further: series mostly up to about 120 µM
Target sequence (P11473 whole entry, looked up): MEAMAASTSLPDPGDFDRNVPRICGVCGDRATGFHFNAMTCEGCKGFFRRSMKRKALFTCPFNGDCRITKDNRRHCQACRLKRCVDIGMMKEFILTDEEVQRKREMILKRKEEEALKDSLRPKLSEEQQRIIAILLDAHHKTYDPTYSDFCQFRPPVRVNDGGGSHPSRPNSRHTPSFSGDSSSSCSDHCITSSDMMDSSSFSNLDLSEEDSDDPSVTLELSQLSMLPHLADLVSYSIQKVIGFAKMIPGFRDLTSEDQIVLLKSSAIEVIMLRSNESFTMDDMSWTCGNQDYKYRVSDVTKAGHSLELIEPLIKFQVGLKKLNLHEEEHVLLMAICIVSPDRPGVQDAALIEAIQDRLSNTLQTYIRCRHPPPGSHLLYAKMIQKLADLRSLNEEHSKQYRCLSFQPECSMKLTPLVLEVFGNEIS
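The screen uses fluorescence polarization to detect compounds that interfere with recruitment of the SRC2-3 coactivator peptide to VDR; plates are read after 2 h at room temperature.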
The depositor's hits bear a star; ? = inconclusive; [ ] = remark or other dose. On the % scale 0 is the no-effect control and ±100 the full control effect; potency means the concentration at half of the fitted maximal effect. A portion of the library (hit frequency here may not be typical).

SMILES | VDR inhibitor
COc1cc(NC(=O)COC(=O)CO/N=C(\C)c2ccc3c(c2)OCO3)cc(OC)c1 | 5%
Cc1ccc(CN2C(=O)C(C)Nc3ncnc(N4CCN(c5ccccn5)CC4)c32)cc1 (stereo not given) | -10%
Cc1cc(C)c(NC(=O)C2CCCN2CCOC(=O)c2ccccc2)c(C)c1 (stereo not given) | 11%
COc1ccc(CNC(=O)c2nc(SCc3ccc(C)cc3)ncc2Cl)cc1 | 8%
Cn1c(=O)c2c([nH]c(=O)n2Cc2ccc(Cl)cc2Cl)n(C)c1=O | -11%
CCN(CC(=O)NC1CCS(=O)(=O)C1)S(=O)(=O)c1ccc(F)cc1 (stereo not given) | 17%
O=C(Oc1cccc(Oc2ccccc2)c1)N1CCOCC1 | -1%
O=C(NC(=S)Nc1cc(C(F)(F)F)ccc1Cl)c1ccccc1 | 14%
COc1ccc(CNC(=O)Cn2cnc3c(=O)n(C)c(=O)n(C)c32)cc1 | 5%
Clc1ccc(-c2nc3ccccc3nc2-c2ccccc2)cc1 | 8%
CCCCCCCCN1N=N[C@H]2[C@H]1[C@@H]1C[C@H]2N(C(=O)OC(C)(C)C)O1 | -1%
Cc1cc(N2CCOCC2)nc2ccc(NC(=S)NCc3ccc4c(c3)OCO4)cc12 | -13%
O=C(/C=C/c1ccccc1)N/C(=C/c1ccccc1)C(=O)NCCO | 6%
CCOc1ccccc1C(=O)NC(C(=O)NCc1ccccc1OC)C(C)C (stereo not given) | 8%
COc1ccccc1OC1=NS(=O)(=O)c2ccccc21 | -10%
COc1ccc(NC(=O)CCc2nnc3ccc(NCc4ccco4)nn23)cc1 | -13%
NS(=O)(=O)c1ccc(N=Nc2ccc(=O)[nH]c2O)cc1 | -5%
Cc1noc(/C=C/c2cccs2)c1S(=O)(=O)N1CCC(C(=O)NCc2ccc(Cl)cc2)CC1 | -12%
Cc1ccc(OCCC(=O)OCC(=O)Nc2ccc(N3CCOCC3)cc2)cc1 | 7%
O=C(CP(=O)(c1ccccc1)c1ccccc1)N1CCCCC1 | -5%
CCCS(=O)(=O)c1c(S(=O)(=O)CCC)c2cnccn2c1C(=O)c1ccc(Cl)cc1 | -1%
CC(=O)Nc1ccc(-n2c(C)c(C(C)=O)c(C(C)=O)c2C)cc1 | 24%
COc1ccc(N(Cc2cc3ccc(C)cc3[nH]c2=O)C(=O)C2CCCO2)cc1 (stereo not given) | -16%
CN1CCN(CCCNC(=O)c2ccc(/C=C3\Oc4ccccc4N(Cc4ccc(Cl)cc4)C3=O)cc2)CC1 | -10%
COc1ccc(C2Nc3ccccc3C(=O)N2c2ccc(F)cc2)cc1CSc1ccccn1 (stereo not given) | -8%
CCC(C)NCCOc1ccc(Br)cc1 (stereo not given) | 6%
COc1ccc(NC(=O)c2cc(C)nc3c2c(C)nn3-c2ccc(C)cc2)cc1OC | -9%
CN(Cc1ccccc1)C(=O)[C@H](Cc1ccc2ccccc2c1)NC(=O)[C@@H]1C[C@@H](O)CN1C(=O)c1cn(C)c2ccccc12 | 3%
Cc1ccc(N(CC2CO2)S(=O)(=O)c2ccccc2[N+](=O)[O-])cc1 (stereo not given) | -12%
CCc1nn2c(=O)cc(COC(=O)c3ccccc3NC(=O)COc3ccccc3C)nc2s1 | 11%
Cc1ccc(C(=O)N2CC(C)OC(C)C2)c(Cl)c1 (stereo not given) | 18%
Cc1noc(C)c1CSc1nc2sc(C)c(C)c2c(=O)n1-c1ccccc1 | -3%
COc1ccc(C(C(=O)NC(C)(C)C)N(C(=O)CNC(=O)c2cccs2)c2ccc(NC(C)=O)cc2)cc1OC (stereo not given) | -6%
COc1ccc(C2c3cc(OC)c(OC)cc3Cc3c4cc(OC)c(OC)cc4cc[n+]32)cc1OC (stereo not given) | -14%
COc1cc(/C=N/N=C(\N)c2nonc2N)cc(OC)c1OC | 14%
Cc1ccc(NC(=O)CN(C)C(=O)Cn2nnc(-c3ccccc3)n2)cc1 | ?
CCSc1nc2cc(OC)c(OC)cc2c(=O)n1CCc1ccccc1 | -7%
Cc1ccnc(NC(=O)COc2c(C)cc(C)cc2[N+](=O)[O-])c1 | -3%
CCC/C(=N/NC(=O)c1csc(C)c1C)c1ccc(Cl)s1 | -11%
O=C(CN1C(=O)NC2(CCCCCCC2)C1=O)NCc1cccs1 | -1%
C=CCc1ccc(OCCOc2cccc3ccc(C)nc23)c(OC)c1 | 9%
CCCN(c1c(C)n(C)n(-c2ccccc2)c1=O)S(=O)(=O)c1ccc(C)cc1 | 9%
Cc1nnc(NC(=O)CN2C(=O)NC3(CCCC3)C2=O)s1 | -8%
c1ccc(CCC2Cc3ccccc3N2)cc1 (stereo not given) | -7%
Cc1ccc(C(=O)Nc2cccc(NC(=O)c3ccc(C)cc3)n2)cc1 | 5%
O=C(c1cc2ccccc2oc1=O)N(Cc1cccc(Cl)c1)C1CCS(=O)(=O)C1 (stereo not given) | 0%
C=C(C(C)=O)C(O)c1ccco1 (stereo not given) | -16%
COc1ccc(CNC(=O)c2c3c(nc4ccccc24)C(=O)N(C2CCCCC2)C3)c(OC)c1 | -8%
COc1ccc2[nH]c3c(c2c1)CCN1C(=O)C(CC(=O)NCCC2=CCCCC2)C[C@H](C(=O)N2CCOCC2)[C@@]31CCC1CCCC1 (stereo not given in full) | 6%
COc1ccc(-c2nn(-c3ccccc3)cc2C(=O)NCC(c2cccs2)N2CCOCC2)cc1 (stereo not given) | 9%
Cc1ccc(C(=O)c2coc3ccc(OCC(=O)O)cc23)cc1 | -10%
CCOC(=O)Cc1csc(NC(=S)NC(=O)c2ccc([N+](=O)[O-])cc2)n1 | -13%
S=C(NC1CCCC1)NN1CCOCC1 | 16%
N#Cc1ccccc1NC(=O)CN(Cc1ccccc1)Cc1ccccc1 | 22%
Cc1nc(-c2cccc(NC(=O)c3ccc(-n4nccc4C)cc3)c2)cs1 | 0%
O=C(O)c1cc(-c2ccccc2)nc(-c2ccccc2)c1 | -4%
CCCCOc1cccc(C(=O)NC(=S)Nc2ccc(Cl)c(C(=O)O)c2)c1 | -5%
CC(=O)c1ccc(NC(=O)CN2CCC(C(=O)c3ccc(F)cc3)CC2)cc1 | 8%
CCOc1ccc(-c2csc(C3COc4ccccc4O3)n2)cc1 (stereo not given) | -4%
CCN1c2ccccc2-n2cccc2C12CCN(C(=O)Nc1ccccc1C(F)(F)F)CC2 | 3%

Molecules above with a tert-butyl group (2):
SMILES | VDR inhibitor
CCCCCCCCN1N=N[C@H]2[C@H]1[C@@H]1C[C@H]2N(C(=O)OC(C)(C)C)O1 | -1%
COc1ccc(C(C(=O)NC(C)(C)C)N(C(=O)CNC(=O)c2cccs2)c2ccc(NC(C)=O)cc2)cc1OC (stereo not given) | -6%

(more compounds)
SMILES | VDR inhibitor
CN(c1ccc(C(=O)Nc2cccnc2)cc1)S(=O)(=O)c1ccc(Cl)cc1 | 4%
O=C(OCc1cnc(Cl)s1)c1cccc(Cl)c1 | 32%[activator]
CCOC(=O)CNC(=O)CN1C(=O)CC(c2ccco2)Sc2ccccc21 (stereo not given) | 5%
COc1cccc(NC(=S)N(CCc2nc3cc(C)c(C)cc3[nH]2)Cc2cccnc2)c1 | 15%
CCN(CC)S(=O)(=O)c1cc(NC(=O)COC(=O)Cn2cnc3ccccc32)ccc1C | -11%
CCS(=O)(=O)n1nc(C(=O)N2CCOCC2)nc1N | 15%
Cc1ccccc1N(C(=O)c1cccs1)c1nc2ccccc2s1 | -6%
CCOCCCNC(=O)c1cc(=O)[nH]c2ccc(S(=O)(=O)N3CCCC3)cc12 | -5%
Cc1cc(C)cc(C(=O)NCC(=O)OC(C)C(=O)N(C)c2ccccc2)c1 (stereo not given) | -1%
Cc1ccccc1N1CC(C(=O)NC2CCCC2)CC1=O (stereo not given) | -12%
Cc1ccc(NC(=O)CN2C(=O)CCc3cc(S(=O)(=O)N4CCOCC4)ccc32)cc1F | 7%
CCOC(=O)Cn1c(=O)oc2cc(S(=O)(=O)Nc3cc(OCC)ccc3OCC)ccc21 | 7%
Cc1c2cnn(-c3ccccc3)c(=O)c2c(C)n1CCCC(=O)NCCN1CCN(C)CC1 | 10%
O=C1C(Cl)=C(N2CCC(C(=O)O)CC2)C(=O)c2ccccc21 | ?
COc1ccccc1N(CC(=O)N(CC(C)C)CC(C)C)S(=O)(=O)c1cccs1 | 1%
Nc1nc(Cl)cc(Oc2ccc(Cl)cc2)n1 | 3%
CC1Sc2n(c3ccccc3[n+]2C)N=C1c1ccccc1 (stereo not given) | 2%
Cc1c(C(=O)N2CCCC2)c(S(=O)(=O)N2CCN(c3ccccc3F)CC2)c(C)n1C | 2%
Cc1coc2c(C)c3oc(=O)c(CCC(=O)N4CCC(C(=O)NCCCC(=O)O)(c5ccccc5)CC4)c(C)c3cc12 | ?
O=C(CCn1c(=O)c2cccn2c2cccnc21)N1CCN(c2cccc(C(F)(F)F)c2)CC1 | 12%
Cc1cccc(C)c1N=C1SC(CC(=O)Nc2c(C)cccc2C)C(=O)N1CCc1ccccn1 (stereo not given) | -8%
O=C1NC(=O)/C(=C/c2ccc(-c3cccc([N+](=O)[O-])c3)o2)S1 | -2%
O=c1[nH]cnc2c1nc(SCc1ccccc1)n2C1OC(CO)C(O)C1O (stereo not given) | 6%
O=c1[nH]cnc2c1C(c1ccccc1)c1c(nc[nH]c1=O)O2 | -11%
CCOC(=O)C1CCN(c2ccc(-c3cccs3)nn2)CC1 | -3%
COc1cccc(C(=O)O/N=C(\N)c2ccc([N+](=O)[O-])cc2)c1 | -14%
CCOc1ccc(CCNC(=O)CCN2C(=O)COc3ccccc32)cc1OCC | 0%
CCC1=Nc2cc(C(=O)NCCN3CCCC3)ccc2Sc2ccccc21 | -4%
C[C@H](CO)N1C[C@H](C)[C@@H](CN(C)C(=O)NC2CCCCC2)Oc2ccc(NS(=O)(=O)c3ccc(F)cc3)cc2C1=O | -7%
CC(=O)Oc1ccc(N2C(=O)CCC2=O)cc1 | -23%
Cc1ccc(C(=O)NCC(=O)Nc2cccc(S(=O)(=O)NC3=NCCCCC3)c2)cc1C | 14%
COc1ccc(C2=NOC(C(=O)N3CCCc4ccccc43)C2)cc1 (stereo not given) | 1%
COc1cc(NC(=O)c2cc3nc(-c4ccccc4)cc(-c4ccccc4)n3n2)cc(OC)c1OC | 6%
COc1cccc(CNC(=O)C2CC(=O)N(C3CCCCC3)C2)c1 (stereo not given) | -8%
CCOC(=O)c1cc(-c2ccc(OC)cc2)n(CCC(=O)Nc2ccccc2OC)c1C | 1%
O=[N+]([O-])c1cccc(S(=O)(=O)Nc2ccc3cn[nH]c3c2)c1 | 13%
Cc1ccc(C)c(N2CCN(C(=O)c3ccccc3Br)CC2)c1 | 5%
O=C(c1ccco1)N1CCN(C(=O)N2c3ccccc3Sc3ccccc32)CC1 | -2%
Cc1ccc(C(=O)NCC(=O)OCC(=O)NC(C)C2CC3CCC2C3)cc1 (stereo not given) | -12%
NCC1CCCCC1CC(=O)O (stereo not given) | -5%
COc1ccc(CN2CC34C=CC(O3)C(C(=O)O)C4C2=O)cc1 (stereo not given) | 14%
CCN(CC(=O)Nc1cccc(C#N)c1)CC(=O)Nc1cccc(OC)c1 | -6%
CCc1ccc(C2CC(=O)Nc3c2c(=O)n(C)c2ncnn32)cc1 (stereo not given) | 3%
COC(=O)CSc1nnc(Cc2ccccc2)n1-c1ccc(C)cc1 | 9%
CCCNC(=O)COc1ncnc2sccc12 | -8%
O=C(NCc1ccc(F)cc1)c1cc2n(n1)C(C(F)(F)F)CC(C1CC1)N2 (stereo not given) | -5%
Fc1ccc(Nc2nc(Nc3ccc(F)cc3)nc(N3CCOCC3)n2)cc1 | 1%
CN(C)c1ccc(C(CNC(=O)c2cccs2)N(C)C)cc1 (stereo not given) | 17%
CCC(C)(C)n1nnnc1C(c1cccs1)N1CCN(c2nc3ccccc3s2)CC1 (stereo not given) | -5%
C/C(=N\NC(=O)COc1ccccc1-c1ccccc1)c1ccc(O)cc1O | -2%
COc1cccc(CC(=O)Nc2nc(-c3cccnc3)cs2)c1 | 10%
COc1ccc(-c2ccc(C#N)c(SCC(=O)OCc3ccccc3)n2)cc1OC | -3%
CC(C)CC(c1nnnn1Cc1ccco1)N1CCN(C2CCCC2)CC1 (stereo not given) | 4%
O=C1CCCC(=O)N1c1ccc(N2CCOCC2)c([N+](=O)[O-])c1 | 7%
O=C(COc1ccccc1C(=O)N/N=C\c1ccc(O)c(O)c1)N/N=C/c1ccc(O)c(O)c1 | 8%
CCOc1ccccc1C(=O)Nc1cc(-c2ccc(C)cc2)no1 | 17%

Structures above with a thiophene ring, fused or not:
SMILES | VDR inhibitor
Cc1noc(/C=C/c2cccs2)c1S(=O)(=O)N1CCC(C(=O)NCc2ccc(Cl)cc2)CC1 | -12%
Cc1noc(C)c1CSc1nc2sc(C)c(C)c2c(=O)n1-c1ccccc1 | -3%
COc1ccc(C(C(=O)NC(C)(C)C)N(C(=O)CNC(=O)c2cccs2)c2ccc(NC(C)=O)cc2)cc1OC (stereo not given) | -6%
CCC/C(=N/NC(=O)c1csc(C)c1C)c1ccc(Cl)s1 | -11%
O=C(CN1C(=O)NC2(CCCCCCC2)C1=O)NCc1cccs1 | -1%
COc1ccc(-c2nn(-c3ccccc3)cc2C(=O)NCC(c2cccs2)N2CCOCC2)cc1 (stereo not given) | 9%
Cc1ccccc1N(C(=O)c1cccs1)c1nc2ccccc2s1 | -6%
COc1ccccc1N(CC(=O)N(CC(C)C)CC(C)C)S(=O)(=O)c1cccs1 | 1%
CCOC(=O)C1CCN(c2ccc(-c3cccs3)nn2)CC1 | -3%
CCCNC(=O)COc1ncnc2sccc12 | -8%
CN(C)c1ccc(C(CNC(=O)c2cccs2)N(C)C)cc1 (stereo not given) | 17%
CCC(C)(C)n1nnnc1C(c1cccs1)N1CCN(c2nc3ccccc3s2)CC1 (stereo not given) | -5%
